High-throughput results from PubChem BioAssay.
Menin-MLL FL inh = menin-MLL binding inhibition, fluorescein peptide; Fluorescence polarization, fluorescein-MLL peptide displacement from menin; AID 1766; 290,000 tested, under 10 active; FP activity change, % at 61.4 µM; inconclusive = falling polarisation curve, or a change in total fluorescence; inactive = total fluorescence flat and polarisation flat or rising; no compound was filed as active; the % refers to the polarisation; negative = inhibition;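 note: % of control where 0% means no effect; inhibitors lower the polarisation; unlabelled MLL peptide was the positive control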
gsp agonist = gsp mutant agonism. gsp mutant cells, cAMP HTRF, 30 min; control for the full effect not named in the record. Potency, µM (doses to about 76.9 µM), without a hit: at the highest dose activation (cAMP increase), actives largely listed as activators. actives 0.13% (n = 340,000); active = well fitted activation curve with a large enough effect; inconclusive = small, poorly fitted or top-dose-only effect, or another doubt; inactive = no such curve, though single readings can be large or run the other way; cell line not stated here;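 note: phosphodiesterase inhibitor Ro 20-1724 added with compounds to block cAMP breakdown; potency is the fitted concentration of half-maximal effect; nearly all actives have a fitted effect of over 60% in size; about a fifth of the inactives were tested at one dose only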
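Cells in DMEM/10% FBS with G418 were pretreated with compounds in DMSO plus […] (300 uM stock) for 30 min at 37C. cAMP was measured by HTRF (cAMP-d2 plus anti-cAMP antibody-K) after 30 min at room temperature.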
D2 potentiator = potentiates the human D2 dopamine receptor allosterically; P14416; potentiation, % (test concentration not listed); actives 0.23% (n = 360,000); DiscoveRx D2 beta-arrestin cells, luminescence, 90 min; 100% = 57 uM dopamine signal; active = potentiation of 50% or more; inconclusive = 30% to 50%; inactive = 30% or less;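 note: compound concentration not given in the record; tested on top of an EC20 dose of dopamine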
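PathHunter beta-arrestin assay in DiscoveRx D2 cells. Compounds were added with an EC20 of dopamine (50 nM final) for 90 min at 37 deg C. Luminescence was read 1 h after detection reagent, with 57 uM dopamine as the EC100 control.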
gsp antag = antagonists of gsp mutant (McCune-Albright syndrome). gsp-mutant cells, cAMP HTRF, 30 min; control for the full effect not named in the record. Potency, µM (highest dose often 76.9 µM), for the others: at the top dose activity change, negative = inhibition, actives largely listed as inhibitors. actives 0.4% (n = 340,000); active = falling curve of any shape with a large fitted effect; inconclusive = falling curve, mostly with a smaller effect; inactive = flat or rising curve; cell line not stated here;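 note: intracellular cAMP measured with PDE inhibitor Ro 20-1724 present during compound exposure; potency is the fitted concentration of half-maximal effect; % is set by controls: 0 for no effect and ±100 for the full control effect; nearly all actives have a fitted effect of over 65% in size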
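HTRF cAMP read-out (cAMP-d2 plus anti-cAMP antibody-K in lysis buffer, 30 min RT). Before lysis, cells are exposed to compounds with […] for 30 min at 37C in DPBS containing Ca/Mg, BSA and Tween 20.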
TRPV1 PAM = potentiators of human vanilloid receptor 1 (TRPV1); Q8NER1; actives 0.02% (n = 320,000); TRPV1-expressing cells, Fluo-8 calcium influx, capsaicin EC20 potentiation; host cell line not named in the record; control for the full effect not named in the record; potentiation, % at 8.33 µM; active means potentiation above 80%; inconclusive means 30% to 80%; inactive means below 30%; note: 0% is about no effect
Target sequence (Q8NER1 whole entry, looked up): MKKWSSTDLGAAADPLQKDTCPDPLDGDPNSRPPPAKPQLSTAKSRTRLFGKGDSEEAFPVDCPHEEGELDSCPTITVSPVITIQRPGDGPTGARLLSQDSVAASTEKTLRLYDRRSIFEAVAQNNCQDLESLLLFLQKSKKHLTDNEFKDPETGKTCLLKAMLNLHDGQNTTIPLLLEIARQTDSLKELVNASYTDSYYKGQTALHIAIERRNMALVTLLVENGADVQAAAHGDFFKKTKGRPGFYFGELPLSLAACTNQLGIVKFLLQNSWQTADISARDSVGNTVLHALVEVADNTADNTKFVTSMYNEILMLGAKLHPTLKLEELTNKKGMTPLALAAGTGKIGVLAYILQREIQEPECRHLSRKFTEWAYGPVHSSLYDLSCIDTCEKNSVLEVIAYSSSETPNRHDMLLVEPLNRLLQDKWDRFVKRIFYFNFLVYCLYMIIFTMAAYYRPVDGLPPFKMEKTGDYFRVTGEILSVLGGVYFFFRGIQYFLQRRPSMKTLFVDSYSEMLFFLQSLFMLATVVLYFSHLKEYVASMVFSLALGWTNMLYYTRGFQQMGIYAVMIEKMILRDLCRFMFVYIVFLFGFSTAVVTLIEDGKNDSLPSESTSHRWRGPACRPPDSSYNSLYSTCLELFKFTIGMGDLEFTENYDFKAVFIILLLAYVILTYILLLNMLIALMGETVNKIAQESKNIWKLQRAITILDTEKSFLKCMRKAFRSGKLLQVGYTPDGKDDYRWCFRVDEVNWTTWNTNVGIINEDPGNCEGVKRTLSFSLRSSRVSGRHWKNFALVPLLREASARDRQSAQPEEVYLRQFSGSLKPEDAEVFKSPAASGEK
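Fluo-8 calcium influx in TRPV1-expressing cells, kinetic read (ex 480/em 520 nm). Compound added and read 3 min for agonist activity, followed by capsaicin at EC20 final and 2 min further read for enhancement.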
ClpP mod = qHTS Assay for Activators of ClpP; Potency, µM (titrated, usually from 57.5 µM), for the others: at the highest dose activity change, negative = active; actives 1.9% (n = 340,000); purified B. subtilis ClpP, FRET peptide cleavage, 20 min; active = well fitted falling curve with a large enough effect; inconclusive = small, poorly fitted or top-dose-only effect; inactive = no such curve, though single readings can be large or run the other way; note: potency is the fitted concentration of half-maximal effect; the source files actives as falling curves though it sought activators and does not explain the sign; nearly all actives have a fitted effect of over 65% in size; many hits overshoot -100%
Target sequence (P80244 whole entry, looked up): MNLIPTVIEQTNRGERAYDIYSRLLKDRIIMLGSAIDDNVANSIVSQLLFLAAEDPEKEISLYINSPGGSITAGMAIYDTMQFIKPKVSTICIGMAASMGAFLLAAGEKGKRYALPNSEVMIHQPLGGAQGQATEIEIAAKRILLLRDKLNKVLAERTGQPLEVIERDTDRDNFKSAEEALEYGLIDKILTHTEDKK
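FRET quenching reversal measured ClpP activation: 10 microg/mL B. subtilis ClpP at pH 8 with the FRET-FV decapeptide, read at 430 nm after 320 nm excitation. The 20-min minus 0-min signal was scaled between DMSO/no-enzyme wells and ADEP (5.8 microM final).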
Sfp inh = blocks B. subtilis Sfp PPTase activity. Biochemical Sfp PPTase activity, qHTS. Potency, µM, inactives show max response, negative = inhibition, usual class: inhibitors. actives 3.5% (n = 310,000). AID 1490; active = well fitted inhibition curve with a large enough effect; inconclusive = small, poorly fitted or top-dose-only effect, or another doubt; inactive = no such curve, though single readings can be large or run the other way;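 note: the enzyme is Sfp with the accession as filed and its product quenches rhodamine fluorescence; potency is the fitted concentration of half-maximal effect; 0% = enzyme reaction without inhibitor and -100% = no enzyme wells; top concentration of the series not given in the record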
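Fluorescence-quenching assay: 15 nM Sfp-PPTase preincubated 15 min at room temperature with compound, then 5 uM rhodamine-CoA and 12.5 uM BHQ-2-labelled YbbR peptide added. Fluorescence (ex 525/em 598 nm) read at start and after 30 min; difference gives rate.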
Numbers without * were called inactive; ? = inconclusive; . = no result given; [ ] = remark or other dose.

Compound,gsp agonist,Menin-MLL FL inh,Sfp inh,D2 potentiator,TRPV1 PAM,ClpP mod,gsp antag
CCCn1c(C)cc(C(=O)COc2ncnc3sccc23)c1C,4%,0.0,9%,-6,-5,-1.1%,-8%
O=C(N/N=C\C=C\c1ccc2c(c1)OCO2)c1ccc(F)cc1,-6%,-11,10%,-14,-21,.,0%
CCCCOc1ccc(N(CC(=O)NCC2CCCO2)C(=O)CCC(=O)Nc2nccs2)cc1 (stereo not given),?,1.2,2%,-12,8,.,-2%
CCN1CCCC1CNc1ccc(S(C)(=O)=O)cc1[N+](=O)[O-] (stereo not given),31%,2.9,15%,-8,24,.,-10%
CC[C@@]1(c2ccccc2OC)C(=O)N(C(=O)OC)N1C(=O)OC,.,-7.2,2%,-4,?,-1.7%,6%
CC1CN(S(=O)(=O)c2ccc(C(=O)Nc3sccc3C(N)=O)cc2)CC(C)O1 (stereo not given),-7%[15.4 µM],7.9,-4%,-9,1,0.0%,-6%
Cc1sc(N=Nc2ccc(N(C)C)cc2)[n+]([O-])c1C,16%,.,.,-16,.,0.0%,.
COc1cc(/C=C(\C#N)C(=O)Nc2ccc3c(c2)OCCO3)ccc1O,-34%[inhibitor],?,-17%,-17,-12,0.3%,-12%
CCn1nc(C(=O)N2CCN(Cc3ccc4c(c3)OCO4)CC2)c2ccccc2c1=O,9%,1.1,-7%,-10,29,1.7%,-7%
CN(CC(=O)Nc1cccc(F)c1)C(=O)CCCc1cccs1,7%[15.4 µM],1.1,12%,-11,-9,1.0%,13%
COc1ccc(CCNC(=O)CSC2=NS(=O)(=O)c3cc(Cl)ccc3N2)cc1OC,-12%[15.4 µM],.,.,1,21,.,-7%
Cc1ccc(Nc2nc(N)nc(CN3CCc4ccccc4C3)n2)cc1,-3%,0.0,12%,-34,10,-4.0%,-3%
c1ccc(-c2nn3cnnc3c3ccccc23)cc1,18%,4.1,4%,-10,-4,1.7%,1%
CC1CN(CC(=O)NCc2ccc(Cl)cc2)CC(C)O1 (stereo not given),-19%[15.4 µM],-9.1,20%,-4,-2,1.3%,-3%
CCCNC(=S)Nc1ccc(Nc2ccccc2)cc1,-6%,5.6,8%,-3,20,-0.3%,-13%
CCNC(=S)N(CCN(CC)CC)Cc1cc2cc3c(cc2[nH]c1=O)OCO3,-1%,-4.7,16%,-3,-8,4.1%,7%
CCc1ccc(NC(=S)Nc2cc(C(=O)O)ccc2N2CC3CC(C2)c2cccc(=O)n2C3)cc1 (stereo not given),-27%,0.8,56µM*,9,16,-3.8%,3%
Cn1c(=O)[nH]c(=O)c2c1nc(SCC(O)CO)n2Cc1ccccc1Cl (stereo not given),17%,-0.3,12%,-16,3,-1.2%,8%
O=C(Cn1cc(C(=O)C(F)(F)F)c2ccccc21)Nc1ccccc1F,17%,2.4,5%,2,?,-1.6%,-17%
COc1ccc(C(=O)N/N=C/c2ccccc2OC(=O)c2ccccc2)cc1,4%,-6.0,4%,-3,6,.,18%

(listing goes on)
Compound,gsp agonist,Menin-MLL FL inh,Sfp inh,D2 potentiator,TRPV1 PAM,ClpP mod,gsp antag
CON(C)C(=O)CC1(CN(Cc2ccccc2)C(=O)OC(C)(C)C)CCCCC1,.,.,.,-9,.,-0.5%,?
O=C(NCCN1CCOCC1)c1ccc2c(c1)N(Cc1ccc(F)cc1)C(=O)c1ccccc1S2(=O)=O,-7%,.,2%,-8,5,2.3%,-5%
CCNS(=O)(=O)c1cccc(C(=O)c2c(C)cc3ccccn23)c1,11%,2.8,-5%,-7,-8,2.9%,-21%
CCn1c(SCC(=O)Nc2ccc(C)cc2)nc2sc3c(c2c1=O)CCN(C)C3,?,.,-4%,-24,13,3.9%,-5%
O=C(CCCN1C(=O)C(c2ccccc2)Oc2cccnc21)NCCc1ccc(Cl)cc1 (stereo not given),-41%[inhibitor],.,-2%,-22,1,-0.5%,-25%
Cc1ccc(-n2nc(C)c(C(=O)N3CCN(C(=O)c4ccco4)CC3)c2-n2cccc2)cc1,-36%,-1.6,9%,4,-5,0.4%,-1%
CCOC(=O)N1CCN(S(=O)(=O)c2ccc(F)c(C(=O)Nc3cccc(C)c3C)c2)CC1,-18%,0.3,17%,21,22,1.2%,2%
COC(=O)c1ccc(NC(=O)c2cc(-c3ccccn3)nc3ccccc23)cc1,2%[15.4 µM],6.7,-3%,-2,10,0.6%,-30%
CC1=C(C(=O)N(C)C)CC(CC(=O)NC2CCCCC2)C(=O)N1Cc1ccc(C(C)(C)C)cc1 (stereo not given),-35%[inhibitor],.,.,-2,.,-0.9%,.
CC1(C)O[C@@H]2[C@H](O1)[C@@H](CO)O[C@H]2n1ccc(=O)[nH]c1=O,3%,.,.,-4,-4,3.6%,4%
O=C(CSc1nnc(-c2ccccc2)o1)N1CCOCC1,-9%,-0.5,10%,-15,7,1.8%,11%
COc1ccc(OC)c(NC(=O)C(CCS(C)(=O)=O)NC(C)=O)c1 (stereo not given),6%,5.4,-3%,6,6,1.6%,6%
Cc1cnc(C(=O)OCC(=O)c2ccc(C3CCCCC3)cc2)cn1,-29%,.,.,0,1,1.6%,-13%
O=C(NCCCO)c1c(O)c2cccc3c2n(c1=O)CCC3,21%,4.4,-1%,-1,-5,?,9%
CC(C)(C)C(=O)NC(=S)NNC(=O)C(c1ccccc1)c1ccccc1,-3%,-0.8,30%[activator],-21,-8,1.4%,-1%
CN(C(=O)c1cc(COc2ccc(F)c(F)c2)on1)C1CCOC1 (stereo not given),?,.,20%,-3,-12,-2.1%,8%
O=C(CSc1nc(O)cc(=O)n1-c1ccccc1)Nc1nc2ccccc2s1,-6%[15.4 µM],8.0,4%,-5,30,-0.5%,9%
Cc1nn(C)c(C)c1/C=C(/C(=O)C(C)(C)C)n1cncn1,-3%,-1.0,9%,-3,2,.,-1%
CCOc1ccc(NC(=O)CSc2nnc(-c3ccoc3C)n2CC2CCCO2)cc1 (stereo not given),?,1.9,-5%,4,-21,-0.9%,-1%
O=C(CSCc1ccccc1Cl)NN1C(=O)c2ccccc2C1=O,-9%,-0.8,2%,-6,18,-1.3%,-1%

Further results:
Compound,gsp agonist,Menin-MLL FL inh,Sfp inh,D2 potentiator,TRPV1 PAM,ClpP mod,gsp antag
CC(C)c1ccc(NC(=O)C2CC(=O)Nc3nc4ccccc4n32)cc1 (stereo not given),-14%,2.4,12%,-2,1,2.2%,15%
CCOC(=O)c1c(N)nn(C(=O)C(C)(C)C)c1-c1ccccc1,-36%[inhibitor],-0.1,22%,-2,-3,0.5%,4%
Cc1c(C(=O)N/N=C/c2ccc(O)cc2)sc(=S)n1C,-5%,.,8%,-23,-1,1.1%,-2%
COc1ccc2c(=O)c(-c3ccc(OC)c(OC)c3)coc2c1,.,-3.5,-2%,-25,11,2.7%,-3%
COc1ccc(/C=N/Nc2cc(C)nc(-n3nc(C)cc3C)n2)c(OC)c1,-5%,13,-20%,-6,10,-27%,-2%
CCN(CC)CCC(=O)N1c2ccccc2Sc2ccc(Cl)cc21,.,-2.8,8%,-34,-2,2.0%,5%
COc1ccc([N+](=O)[O-])cc1NS(=O)(=O)c1ccc(C)cc1,4%,2.6,14%,-8,-6,-0.2%,2%
Fc1ccc(-c2n[nH]c(=S)n2/N=C/c2c[nH]c3ccccc23)cc1,-6%,-3.3,-4%,25,-3,0.5%,-9%
O=C(Nc1nnc(SCc2ccccc2Cl)s1)c1cccc([N+](=O)[O-])c1,10%,3.3,8%,-9,-1,-1.2%,-13%
O=C(CN1CCN(Cc2ccccc2)CC1)N/N=C/c1cccnc1,1%,0.0,-14%,-21,.,-0.4%,8%
NC(=NC(=O)c1ccc(Cl)cc1)N1N=CCC1c1ccccc1 (stereo not given),15%[15.4 µM],-5.0,3%,2,-27,.,-21%
CN1CC(c2ccc(Cl)c(Cl)c2)[C@@]2(COc3ccccc3C2=O)[C@@]12C(=O)Nc1ccccc12 (stereo not given in full),11%,1.2,17%,6,6,4.0%,-1%
CCOc1ccccc1Oc1ccc(C(F)(F)F)cn1,-26%,4.8,5%,-2,-20,0.2%,9%
O=C(Nn1cnc2ccccc2c1=O)c1ccc(Br)cc1,-1%[15.4 µM],-17,4%,-2,-11,-0.9%,4%
COc1ccc(OC)c(NC(=O)c2cc(S(=O)(=O)NCc3ccco3)ccc2F)c1,-15%,2.2,14%,-9,0,-2.9%,-1%
COc1ccc(CCNC(=O)COC(=O)c2cnc(Cl)c(Cl)c2)cc1,7%,.,.,-6,.,-4.0%,1%
COCCNC(=O)CN(c1ccc(OC)c(OC)c1)S(=O)(=O)c1ccc(C)cc1,2%,3.2,4%,-11,.,-0.3%,1%[15.4 µM]
O=C(CSc1nnnn1-c1ccc(F)cc1)NNC(=O)c1ccco1,?,-0.2,14%,-6,-3,-3.4%,8%
COc1cccc(CNC(=O)CC(NC(C)=O)c2ccccc2)c1 (stereo not given),-32%[inhibitor],1.0,10%,-4,25,0.7%,5%
Cc1ccc(C(=O)CNc2ccc(C)cc2C)cc1,-21%[15.4 µM],5.9,2%,-29,-6,0.4%,2%

Given with values under each structure: entries from further up.
Second line of a record – gsp agonist | Menin-MLL FL inh | Sfp inh | D2 potentiator | TRPV1 PAM | ClpP mod | gsp antag
O=C(NCCN1CCOCC1)c1ccc2c(c1)N(Cc1ccc(F)cc1)C(=O)c1ccccc1S2(=O)=O
  -7% | . | 2% | -8 | 5 | 2.3% | -5%
CCNS(=O)(=O)c1cccc(C(=O)c2c(C)cc3ccccn23)c1
  11% | 2.8 | -5% | -7 | -8 | 2.9% | -21%

(continued)
Compound,gsp agonist,Menin-MLL FL inh,Sfp inh,D2 potentiator,TRPV1 PAM,ClpP mod,gsp antag
S=c1[nH]nc(-c2ccc(Br)cc2)n1Cc1ccco1,?,-1.5,-14%,-15,6,?,0%
CCN(c1ccc(NS(=O)(=O)c2cc(Cl)ccc2Cl)cc1)C(C)C,12%,10,-16%,-3,-6,-1.6%,-2%
COc1ccc(CNC(=O)c2cc(=O)c3ccc(C)c(C)c3o2)cc1,-4%,12,-5%,-5,-18,.,-1%
O=C(O)c1cccc2c1C(=O)c1ccccc1C2=O,19%,1.4,-8%,-15,5,0.8%,9%
O=S(=O)(NC1CCCC1)c1ccc(-n2cnnn2)cc1,-4%[15.4 µM],4.0,26%,-1,5,.,0%
